Anthrax LT inh = inhibitors of anthrax lethal toxin internalization. Cells, anthrax lethal toxin internalization, FRET ratio (460/530). Potency, µM (highest dose often 40 µM), inactives show at the top dose activity change, negative = inhibition, most hits filed as inhibitors. 0.67% of 70,000 active. AID 912; active = well fitted falling ratio curve with the 530 nm signal flat; inconclusive = other ratio curves, or a change in one channel alone; inactive = flat curves in the ratio and both channels; the % refers to the ratio; note: % is set by controls: 0 for no effect and ±100 for the full control effect; nearly all actives have a fitted effect of over 50% in size; tested in ME-180 cells; beta-lactamase reporter
Prx2 Sm inh = Schistosoma mansoni Prx2 inhibition | 0.07% of 65,000 active | AID 448 | S. mansoni Prx2 activity coupled to TGR/GSH (TGR is thioredoxin glutathione reductase), NADPH fluorescence loss, qHTS; some inactives read as strong as hits | Potency, µM; active means full or partial inhibition curve with a strong effect at the top dose; inconclusive means weaker partial or single-point curve; inactive means no accepted curve; note: series up to 57 µM; many of its hits are not listed in these tables
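Activity is read as the drop in NADPH fluorescence (365/450 nm), recorded every 30 sec for 8 min after H2O2 addition. Prx2 is coupled to TGR-driven NADPH oxidation through glutathione, in phosphate buffer pH 7.4.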
An asterisk follows results filed as active; ? = inconclusive; / = not tested or not shown; & = joins results of further samples; [ ] = dose if it differs, or a comment. Potency is the fitted concentration of half-maximal effect. The list is partial (hit frequency here may not be typical).

Start of the data: the first 2 entries, to show the layout:
SMILES	Anthrax LT inh	Prx2 Sm inh
CN1CCc2cc3c(cc2C(=O)Cc2ccc4c(c2C1)OCO4)OCO3	5%	>57
CCOC(=O)c1c(NC(=O)C(F)(OC)C(F)(F)F)sc2c1CCN(C)C2 (configuration not stated)	?	>57

The list itself, from the first entry:
SMILES	Anthrax LT inh	Prx2 Sm inh
CN1CCc2cc3c(cc2C(=O)Cc2ccc4c(c2C1)OCO4)OCO3	5%	>57
CCOC(=O)c1c(NC(=O)C(F)(OC)C(F)(F)F)sc2c1CCN(C)C2 (configuration not stated)	?	>57
CN(C)C(=O)Oc1cccc([N+](C)(C)C)c1	7%[3.58 µM]	>57&>57
C=CCn1c(SCC(=O)NCC(=O)OCC)nnc1-c1ccccn1	-1%	>57
CCc1ccc(NC(=O)c2ccc3c(c2)C(=O)N(Cc2ccco2)C3=O)cc1	?	>57
CCc1ccc(OCC(=O)NCCN(C)C)c(Br)c1	0%	>57
O=C(Cc1cn2ccsc2n1)NCCc1ccc(F)cc1	-5%	>57
O=C(Nc1ccc2nc3n(c(=O)c2c1)CCCCC3)c1ccccn1	1%	>57
O=c1c(-c2cc(F)cc(F)c2)nc2cnc(N3CCNCC3)nc2n1CCc1ccccc1	?	>57
Cc1c(C(=O)N2CCOCC2)[nH]c2c1C(=O)CC(c1ccc(Cl)cc1)C2 (configuration not stated)	1%	>57
Cc1ccc(C(=O)Nc2nc3c(s2)CCCC3)o1	3%	>57
C=CCOc1ccc(CN(C)CC(=O)N(CC(C)C)c2c(N)n(CC(C)C)c(=O)[nH]c2=O)cc1	0%	>57
Cc1ccc(C)c2[nH]c(=O)c(CN(Cc3nnnn3C3CCCCC3)CC3CCCO3)cc12 (configuration not stated)	-6%	>57
COc1cccc(-c2cc(C(F)(F)F)nc(NCc3ccco3)n2)c1	?	>57
COc1ccccc1NC=C1C(=O)OC2(CCCCC2)OC1=O	-3%	>57
N#C/C(=C\c1ccc(O)c(O)c1)C(=O)Nc1ccccc1	25µM*	>57&>57
CC(C)=CCCC(C)CN(C)CCc1ccccn1 (configuration not stated)	-13%	/
COCCCNC(=O)C(Cc1ccccc1)NS(=O)(=O)c1ccc2c(c1)c(=O)n(C)c(=O)n2C (configuration not stated)	4%	>57
CCOc1ccc(C(C)=O)cc1COC(=O)C1=COCCO1	2%	>57
O=C(Nc1ccccc1O)c1cc(S(=O)(=O)N2CCOCC2)c(Cl)cc1Cl	?	/
CCOC(=O)c1ccc(NC(=O)CSc2nnc(-c3cccs3)n2C)cc1	13%	>57
COC(=O)c1sccc1NC(=O)c1csc(C)c1	-8%	>57
O=c1cc(NC2CCCCCC2)[nH]c(=O)[nH]1	11%	>57
CNCC(O)c1cccc(OC(=O)c2ccccc2C)c1 (configuration not stated)	6%	>57

Pulled by compound from the list above (two):
SMILES	Anthrax LT inh	Prx2 Sm inh
COc1cccc(-c2cc(C(F)(F)F)nc(NCc3ccco3)n2)c1	?	>57
O=C(Nc1ccccc1O)c1cc(S(=O)(=O)N2CCOCC2)c(Cl)cc1Cl	?	/

Further results
SMILES	Anthrax LT inh	Prx2 Sm inh
C=C(C)c1cccc(C(C)(C)NC(=O)NCC2CCCO2)c1 (configuration not stated)	-26%	>57
CCOC(=O)c1ccc(NC(=O)Cn2nnc(-c3ccccc3C)n2)cc1	-6%	>57
COc1ccc(CNC(=O)COC(=O)c2n[nH]c3ccccc23)cc1	8%	>57
CC1=C(\C=C/C(C)=C/C=C\C(C)=C\C(=O)Nc2ccc(O)cc2)C(C)(C)CCC1	-8%	>57
Cc1cc(C(N)=O)c2ccccc2n1	-6%	>57
CCOc1ccc2nc(-c3ccc(OC)c(OC)c3)cc(C(=O)O)c2c1	0%	>57
Nc1cccc2c(=O)[nH][nH]c(=O)c12	?	/
CCOC(OCC)P(=O)(O)CCCNCc1ccc(Cl)c(Cl)c1	?	>57
COc1ccc(OC)c(NC(=O)[C@H]2CC=CC[C@H]2C(=O)O)c1	6%	>57
c1ccc2c(c1)CCCN2Cc1nnnn1C1CCCC1	1%	>57
CCn1c(SCC(=O)NC(C)(C)C)nc(O)cc1=O	24%	>57
O=C(CN1C(=O)c2ccccc2S1(=O)=O)N1CCN(Cc2ccc3c(c2)OCO3)CC1	4%	>57
CCCCC(CC)CNC(=O)CN(C)S(=O)(=O)c1cccc2nsnc12 (configuration not stated)	?	>57
COc1ccc(N2CCN(C(CNC(=O)c3cccc(Cl)c3)c3cccnc3)CC2)cc1 (configuration not stated)	-8%	>57
O=C(CCS(=O)(=O)c1cc(Br)cc2c1N(C(=O)C1CC1)CC2)NCC1CCCO1 (configuration not stated)	?	>57
CCCOC(=O)C1=C(C)NC2=C(C(=O)CCC2)C1c1cccs1 (configuration not stated)	14%	>57
CCNc1nc(N)nc(Oc2ccc(OCC)nn2)n1	-3%	>57
Cc1noc(C)c1C(=O)N1CCC[C@@]2(CCN(Cc3ccc(C#N)cc3)C2)C1	?	>57
O=C(c1ccc(CNS(=O)(=O)c2cccc(C(F)(F)F)c2)cc1)N1CCOCC1	-4%	>57
OCCN(Cc1ccccc1)Cc1ccccc1Cl	-7%	>57
CS(=O)(=O)N1CCC2(CC1)CN(c1ncccn1)C2	14%	>57
O=C(Nc1ccccc1)C1CC(=O)N(C2CCCCC2)C1 (configuration not stated)	10%	/
O=C(CSc1nc(-c2ccc(F)cc2)cs1)N1CCOCC1	-5%	>57
O=C(Nc1ccc(N2CCN(C(=O)c3ccccc3)CC2)cc1)c1cc2ccccc2o1	6%	>57
O=C(NCc1ccc2c(c1)OCO2)c1nn(-c2ccccc2)c(=O)c2ccccc12	6%	>57
Cc1ccc(-n2ncc3c(NCc4ccccc4)ncnc32)cc1	-6%	>57
CC(C)OC(=O)c1cccnc1SCc1cc(=O)n2ccccc2n1	3%	>57
CCCCCCP(=O)(O)c1ccccc1	-5%	>57
Cc1cc(NC(=O)C2CCN(S(=O)(=O)c3cnc[nH]3)CC2)ccc1Br	2%	>57
COc1ccc(OC)c(S(=O)(=O)N2Cc3ccccc3CC2C(=O)O)c1 (configuration not stated)	2%	>57
Cc1noc(C)c1CSc1nnc(-c2cccnc2)n1C1CCCCC1C (configuration not stated)	6%	>57
CC1=C(C(=O)OC(C)C)C(c2ccccc2Cl)CC(=O)N1 (configuration not stated)	-7%	>57
COC(=O)[C@@H]1C(O)[C@@H](C(=O)OC)[C@H](C)N(C)[C@@H]1C (some centres not stated)	9%[8 µM]	>57
NC(=O)c1nsnc1-c1ccccc1O	5%	>57
OC[C@@H]1O[C@@H](N2CCN([C@@H]3O[C@@H](CO)[C@@H](O)[C@H](O)[C@H]3O)CC2)[C@@H](O)[C@H](O)[C@H]1O	-13%[8 µM]	>57
O=C(CS(=O)(=O)Cc1ccccc1)Nc1nc2c(s1)CCCC2	0%	>57

Entries of single compounds from above:
`O=C(NCc1ccc2c(c1)OCO2)c1nn(-c2ccccc2)c(=O)c2ccccc12` across the screens: Anthrax LT inh = 6%; Prx2 Sm inh = >57
`Cc1noc(C)c1CSc1nnc(-c2cccnc2)n1C1CCCCC1C` (configuration not stated) across the screens: Anthrax LT inh = 6%; Prx2 Sm inh = >57

Next part
SMILES	Anthrax LT inh	Prx2 Sm inh
CCN(CC)C(=O)Cn1c(=O)n(Cc2ccccc2Cl)c2c1c(=O)n(C)c(=O)n2C	3%	>57
Cc1cc(Nc2ccccc2)n(-c2ccccc2)n1	0%	>57
COc1ccccc1C(=O)N1CCCN(C(=O)c2ccccc2OC)CC1	4%	>57
CCOc1ccc(NC(=O)CSc2nnc(-c3ccccc3)n2N)cc1	?	>57
NC(=O)c1ccccc1NC(=O)CCCN1C(=O)CCC1=O	-2%	>57
Cc1cc(C)n2nc(CC(=O)NC3CCCCCCC3)nc2n1	-9%	>57
COc1cccc(OC)c1C(=O)Nc1cc(Cl)ccc1N1CCOCC1	-6%	>57
Cc1c(CNC(=O)c2nn3c(c2Cl)NC(c2ccccc2)CC3C(F)(F)F)cnn1C (configuration not stated)	-8%	>57
O=c1cc(-c2ccc(O)cc2O)oc2ccccc12	?	>57
CCCCn1c(CN2CCN(c3cccc(Cl)c3)CC2)nc2c1c(=O)n(C)c(=O)n2C	?	>57
O=c1cc(N2CCOCC2)[nH]c(=O)n1-c1ccc(Cl)cc1	-7%	>57
O=C1[C@H]2[C@H]3[C@H](O)[C@H](O)C/C(=N/OCc4ccccc4)[C@H]3CC[C@@H]2C(=O)N1c1cccc(Oc2ccccc2)c1	-7%[8 µM]	/
CCNC(=O)N1CCNC(=O)C1CC(=O)OC (configuration not stated)	1%	>57
Cc1oc2c(CN3CCCC3)c(O)ccc2c(=O)c1-c1ccc(Br)cc1	-14%	/
Cc1csc2ncc(C(=O)N3CCc4ccccc43)c(=O)n12	-17%	>57
CCOC(=O)c1cc2c(=O)n3ccccc3nc2n(Cc2ccccc2)c1=N	3%	>57
Cn1c(=O)cc(SCC(=O)NCC2CCCO2)c2ccccc21 (configuration not stated)	-6%	>57
CC1CCCC(C)N1C(=O)CSc1nnc(NC(=O)Cc2cccs2)s1 (configuration not stated)	1%	>57
O=C(CCN1C(=O)c2ccccc2C1=O)Nn1cnnc1	3%	>57
O=C(OCC(COC(=O)c1ccccc1)(COC(=O)c1ccccc1)COC(=O)c1ccccc1)c1ccccc1	?	/
COc1cc(OC)c(C(=O)NC2CC(C)(C)NC(C)(C)C2)cc1OC	-6%	>57
CCn1c2ccccc2c2cc(NC(=O)Cc3ccc(S(=O)(=O)N4CCOCC4)s3)ccc21	?	>57
CC1CCCCC1NC(=O)c1nnc(Cc2ccc(Cl)cc2)o1 (configuration not stated)	5%	>57
CC(=O)O[C@@H]1C[C@]2(C)[C@H](C[C@@H](O)[C@H]3[C@@]4(C)CC[C@@H](O)[C@@H](C)[C@@H]4CC[C@@]32C)/C1=C(\CCC=C(C)C)C(=O)O	0%	>57

Part of the list above, in CSV form:
Structure,Anthrax LT inh,Prx2 Sm inh
CCNC(=O)N1CCNC(=O)C1CC(=O)OC (configuration not stated),1%,>57
Cc1oc2c(CN3CCCC3)c(O)ccc2c(=O)c1-c1ccc(Br)cc1,-14%,/
Cc1csc2ncc(C(=O)N3CCc4ccccc43)c(=O)n12,-17%,>57
CCOC(=O)c1cc2c(=O)n3ccccc3nc2n(Cc2ccccc2)c1=N,3%,>57
Cn1c(=O)cc(SCC(=O)NCC2CCCO2)c2ccccc21 (configuration not stated),-6%,>57

Next records follow:
SMILES	Anthrax LT inh	Prx2 Sm inh
O=C(O)CCCC(=O)NCCc1ccncc1	-6%	>57
COc1ccc(-n2cnc3c(sc4nccc(N(C)C)c43)c2=O)cc1	/	>57
O=C(OCc1cc2ccccc2[nH]c1=O)c1ccccn1	-19%	>57
CC(=O)N1CCN(c2ccc(NCc3ccc(F)cc3)cc2)CC1	-8%	>57
CC(C(=O)NC1CCCc2ccccc21)N1CCN(Cc2ccc3c(c2)OCO3)CC1 (configuration not stated)	-25%	>57
CC1(NC(=O)N2CCCCC2)CCS(=O)(=O)C1 (configuration not stated)	17%	>57
COc1ccc(OC)c2c(C)cc(N3CCCN(C)CC3)nc12	-17%	/
CC1Cc2ccccc2N1C(=O)CSCC(=O)O (configuration not stated)	-2%	>57
COc1ccc(-n2c(Cc3cccn3C)nnc2SCC(=O)N2CCOCC2)cc1	6%	>57
Cc1cc(C)n2nc(SCc3nc4ccccc4[nH]3)nc2n1	-5%	>57
CC1Oc2ccccc2N(CC(=O)c2ccccc2)C1=O (configuration not stated)	-10%	>57
CCOc1ccccc1-n1c(SCC(=O)NCc2ccco2)nnc1-c1ccncc1	8%	>57
COc1ccc(S(=O)(=O)N(C)CC(=O)N2CCOCC2)cc1Cl	-9%	>57
Cc1cc(C(=O)O)c(CCCN)s1	?	>57
COc1ccc(N2CCN(C(=O)c3ccc(C)c(Cl)c3)CC2)cc1	4%	>57
Cc1ccc(S(=O)ON2CCC(C(=O)O)(c3ccccc3)CC2)cc1 (configuration not stated)	-4%[8 µM]	>57
COc1ccccc1NC(=O)Nc1ccc2c(c1)OCCO2	?	>57
CCN(Cc1ccccc1)S(=O)(=O)c1ccc(S(=O)(=O)N2CCN(CCC#N)CC2)cc1	-13%	>57
O=C(OC1CSc2nc3ccccc3n2C1)c1ccco1 (configuration not stated)	7%	>57
CCOC(=O)Nc1sc(C)nc1-c1ccccc1	-3%	>57
c1ccc(C[C@@H](c2ccccc2)N2CCCCC2)cc1	?	>57
CC(=O)Nc1cc(NC(C)=O)c(CC(C)C)s1	-1%	/
C=C(C)C(=O)OCC(C)O (configuration not stated)	-1%	/
O=C(O)CCn1cnc2c(=S)nc[nH]c21	-6%[8 µM]	>57
O=C(COC(=O)C1=COCCO1)Nc1ccc2c(c1)OCO2	-17%	>57
CCCCOC(=O)Nc1sc2c(c1C(=O)OC)CCC2	?	/
CCOC(=O)N1CCC(NC(=O)c2ccc3snnc3c2)CC1	1%	>57
COC(=O)N[C@H](c1ccccc1)[C@@]1(C)C[C@@H]1[C@@H](C)C(=O)Nc1ccc2ccccc2c1	10µM*	>57

Assay outcomes as filed in PubChem.
